FGF22 binding = shifts melting point of recombinant human FGF22. Q9HCT0. recombinant FGF22 thermal shift, SYPRO orange fluorescence; percent of sucrose octasulfate shift, DMSO zero. calls only at 9.99 µM. 340,000 compounds, 1.5% hits. AID 651658;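 active = melting point raised past a set limit in the mean and every replicate; inconclusive = no clear call; three in four hits are not shown here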
Target sequence (Q9HCT0 whole entry, looked up): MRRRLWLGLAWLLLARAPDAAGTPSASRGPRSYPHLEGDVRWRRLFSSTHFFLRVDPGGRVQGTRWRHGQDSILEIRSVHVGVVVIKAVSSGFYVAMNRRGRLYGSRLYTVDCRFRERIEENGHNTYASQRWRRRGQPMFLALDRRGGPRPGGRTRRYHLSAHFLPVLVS
MLL AF4-AF9 inh = MLL-AF4/AF9 protein interaction inhibition; AlphaScreen, biotin-AF4 peptide binding to FLAG-AF9; inhibition, % at 10 µM; 350,000 compounds, 0.47% hits;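 active = every replicate reaching a set inhibition limit, whatever the replicate mean, cut at about 25% in these data; inconclusive = mean inhibition reaches that limit but some replicates miss it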;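 also: 0% = plate neutral control median and 100% = total signal loss; the record names both 10 and 1 µM as test concentration; the first replicate is given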
HNF4A DNA FP = change in binding of human HNF4 alpha to DNA | activity change, % at 10 µM | 360,000 compounds, 0.3% hits | AID 1224865 | P41235 | HNF4a-FITC DNA binding, fluorescence polarization, 1 h; in the data active = activity change above about 30%, passing the limit was not always enough;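 also: controls were the assay level and a saturating level of protein; the project sought stronger binding though the title names inhibitors; some compounds called inactive have numbers as strong as hits; positive values seem to mean higher polarization but the record does not say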
Target sequence (P41235 whole entry, looked up): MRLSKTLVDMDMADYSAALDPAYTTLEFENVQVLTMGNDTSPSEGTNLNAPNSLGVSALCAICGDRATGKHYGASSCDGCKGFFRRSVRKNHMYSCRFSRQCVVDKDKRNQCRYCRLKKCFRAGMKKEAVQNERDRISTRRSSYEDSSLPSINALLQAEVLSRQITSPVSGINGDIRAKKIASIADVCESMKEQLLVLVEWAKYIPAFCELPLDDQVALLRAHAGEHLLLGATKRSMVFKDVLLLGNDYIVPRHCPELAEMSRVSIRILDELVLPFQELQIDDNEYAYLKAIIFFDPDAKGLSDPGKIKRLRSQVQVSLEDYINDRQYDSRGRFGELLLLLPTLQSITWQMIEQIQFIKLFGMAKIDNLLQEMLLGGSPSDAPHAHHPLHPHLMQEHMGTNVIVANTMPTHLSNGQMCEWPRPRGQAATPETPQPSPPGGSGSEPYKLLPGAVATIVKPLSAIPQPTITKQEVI
Vif TR-FRET = HIV-1 Vif–A3G interaction blockers – biochemical, TR-FRET, GST-Vif 1-94, biotin-A3G peptide, dose response retest, primary screen (AID 1117319); one-dose inhibition, %; IC50 in µM for titrated hits; TR-FRET GST-Vif / biotin-A3G peptide binding; higher % means a stronger effect; test concentration not given here; strong numbers were not always called active; 260,000 compounds, 0.57% hits;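 active = above the screen mean plus three standard deviations and confirmed in dose response; inconclusive = results disagree or hit not tested in dose response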;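 also: Vif residues 1-94 fused to GST binding biotinylated APOBEC3G peptide 110-148; 0% = full assay without inhibitor and 100% = GST in place of GST-Vif; retest series ran down from 100 µM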
UCH37 DUB inh = blocks the human deubiquitinase UCH37 | Q9Y5K5 | 330,000 compounds, 0.33% hits | purified proteasome/UCH37, Ub-AMC cleavage fluorescence | AID 588478 | inhibition, % (concentration not given with the values);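 active = mean of two replicates above 20%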;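 also: 0% = compound-free wells with enzyme and 100% = wells lacking proteasome; stock transfer was 100 nL into about 20 µL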
Target sequence (Q9Y5K5 whole entry, looked up): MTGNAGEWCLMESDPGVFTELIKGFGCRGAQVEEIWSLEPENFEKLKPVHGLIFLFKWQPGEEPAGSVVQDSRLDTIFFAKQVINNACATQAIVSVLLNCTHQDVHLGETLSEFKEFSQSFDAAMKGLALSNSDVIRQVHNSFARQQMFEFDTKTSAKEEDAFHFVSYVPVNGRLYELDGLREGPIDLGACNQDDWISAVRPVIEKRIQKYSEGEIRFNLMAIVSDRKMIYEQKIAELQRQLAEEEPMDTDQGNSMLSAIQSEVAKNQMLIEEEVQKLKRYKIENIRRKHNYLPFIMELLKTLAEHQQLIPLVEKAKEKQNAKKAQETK
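Test system – human UCH37 enzyme supplied as purified proteasome complex · Incubation – 30 min preincubation with enzyme, 25 min cleavage at room temperature · Detection – AMC fluorescence from Ub-AMC cleavage, excitation 355 nm, emission 460 nm · Benchmarks – no-proteasome wells (full inhibition) and compound-free wells (no inhibition)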
Ecoli growth = E. coli growth inhibition; Escherichia coli growth, OD600, 23 h; hits give low values; OD600 absorbance (concentration not given with the values); 330,000 compounds, 0.21% hits; AID 1053175;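 active = OD600 absorbance below the run mean of sample wells minus 3.6 SD, in any replicate, cut at about 0.56 in these data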;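 also: stock transfer was 300 nL into about 60 µL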
RanGTP-Impb inh = inhibitors of RanGTP-importin-beta interaction, primary screen, biochemical, FRET, CFP-Ran, YFP-importin-beta, homogeneous; cell-free CFP-Ran/YFP-importin-beta FRET ratio; inhibition, % (concentration not given with the values); 300,000 compounds, 1.1% hits; AID 2216;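 active = most replicates above 15%; inconclusive = exactly half above 15%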;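 also: 0% = DMSO wells and 100% = Ran loaded with GDP instead of GTP; wells of about 40 µL received 100 nL stock; the first replicate is given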
Starred values were filed as active, the others as inactive; i = inactive; ? = inconclusive; . = no result given; & = joins results of further samples.

Order of results – FGF22 binding | MLL AF4-AF9 inh | HNF4A DNA FP | Vif TR-FRET | UCH37 DUB inh | Ecoli growth | RanGTP-Impb inh
CCOc1ccc(Br)cc1S(=O)(=O)NC(=O)c1ccccc1
    i | -0.5 | -1.8 | -9% | 0.3 | 0.67 | 7.1
CCN(CC)C(=O)c1cccc(-c2csc(C(O)c3ccc(OC)cc3)n2)c1 (centres undefined)
    i | -4.4 | 1.2 | . | . | . | .
Cc1c(C(=O)Nc2ccc(-c3nnc4n3CCCCC4)cc2)oc2ccc(Br)cc12
    . | . | 9.6 | 14% | -25 | 0.67 | -0.9
Cc1ccc(CCC(=O)Nc2ccccc2C(=O)O)o1
    i | -4.2 | 0.8 | . | 7.6 | 0.7 | 2.2
COc1ccc(N2CCN(C(=O)C34CCC(C)(C(=O)C3)C4(C)C)CC2)cc1 (centres undefined)
    . | . | 1.4 | 16% | 1.6 | 0.73 | -1.2
O=C(COC(=O)c1ccc(F)cc1)NCc1ccc(F)cc1
    i | -0.5 | 3.9 | -6% | 3.5 | 0.66 | .
CCOC(=O)Cc1csc(NC(=O)CSc2nnc(-c3ccc(NS(=O)(=O)CC)cc3)o2)n1
    . | . | 0.7 | -1% | -0.6 | 0.74 | 2.7
CCc1cc(C(=O)N(CCCOC)c2c(N)n(Cc3ccccc3)c(=O)[nH]c2=O)sc1C
    . | -0.2 | -2.2 | -6% | -2.6 | 0.62 | -1.3
CN(C(=O)CSC1=Nc2ccccc2C2=NC(c3ccccc3)C(=O)N12)C1CCCCC1 (centres undefined)
    . | . | 1.9 | 3% | -135 | 0.67 | -0.4
CCCN1CCCC[C@H]1C(=O)Nc1c(C)cccc1C
    i | 2.1 | -4.0 | . | 2.5 | . | 1.7
Cc1cccc(N2CC(C(=O)O)CC2=O)c1C (centres undefined)
    i | -0.3 | 6.4 | 4% | 5.5 | 0.72 | 5.6
O=C(Nc1ccccc1)C1=C[C@H](C2CCCCC2)C[C@H](OCCCCO)O1
    i | 1.0 | 2.3 | . | 1.9 | . | 3.2
Cc1cccc(N2Cc3ccc(Br)cc3C2)c1
    i | 2.7 | 8.4 | . | 5.4 | 0.69 | -0.2
CCOC(=O)Cn1c(-c2cccnc2)nc(-c2ccccc2)c1-c1ccccc1
    i | 7.4 | 2.0 | -6% | -0.1 | 0.67 | 0.5
COc1ccc(C(=O)NCC(c2cccs2)N2CCc3ccccc32)cc1OC (centres undefined)
    i | 2.9 | 3.1 | 0% | 5.9 | 0.67 | 4.4
CS(=O)(=O)N1CCN(c2ccccc2NC(=O)c2ccc(-c3ccc(Br)cc3)o2)CC1
    . | . | 4.2 | -16% | -60 | 0.73 | 1.0
COC(=O)c1ccc(Cn2cc(Cl)cn2)o1
    i | -1.4 | -2.1 | 2% | 4.7 | 0.7 | 1.5
COc1cc(C(=O)NC(=S)Nc2ccc(Cl)cn2)cc(OC)c1OC
    i | 0.0 | -2.4 | . | 1.6 | 0.68 | 0.8
COc1ccc(-c2nnc(SCc3nnc(-c4ccccc4)o3)n2C)cc1OC
    . | . | 0.8 | 29% | 2.5 | 0.72 | -1.2
COc1cc(OC)c(OC)cc1/C=C1/C(=O)N=C(N)N1C
    i | -1.7 | 2.5 | . | 13 | 0.7 | -1.1
CCCCC(NC(C)=O)c1nc2ccccc2n1CCCC (centres undefined)
    . | . | -2.4 | 2% | 0.1 | 0.73 | -1.9
COc1ccccc1NS(=O)(=O)c1ccc(O)c(C(=O)OCC(=O)Nc2ccccc2F)c1
    i | -3.2 | 0.7 | . | -6.7 | 0.64 | -1.3
CC(=O)c1c(C)nn(-c2ccccc2)c1C
    i | . | 1.1 | . | 3.6 | 0.66 | 2.7
COc1ccc([N+](=O)[O-])cc1NC(=S)Nc1ccccc1
    . | . | -1.9 | 26% | 4.0 | 0.7 | -3.2
O=C(CN1C(=O)NC(c2ccccc2)(c2ccccc2)C1=O)N1CCN(c2ccc(F)cc2)CC1
    i | 5.8 | -0.8 | 10% | 1.6 | 0.68 | .
Cc1cc(N/N=C/c2cccc(Br)c2)nc2ccccc12
    . | . | 1.5 | 28% | . | . | 5.1
CCOc1ccc2c(c1)C(c1ccccc1)=NNC(c1ccccc1)=N2
    . | . | 0.7 | 10% | 2.5 | 0.7 | -2.1
Nc1ccc2nn(-c3cc([N+](=O)[O-])ccc3O)nc2c1
    i | -2.4 | -2.2 | . | 9.9 | 0.7 | -0.4
COc1cc(C)ccc1OCCCCOc1ccccc1C(C)=O
    i | 1.7 | 2.7 | 4% | 0.4 | 0.67 | ?
C[C@@H]1CN([C@@H](C)CO)C(=O)c2cc(Br)cnc2O[C@@H]1CN(C)S(C)(=O)=O
    i | 1.1&-3.1 | -0.1 | . | . | . | .
Cc1ccc(OCCNCC(O)COc2ccccc2)cc1 (centres undefined)
    i | 2.2 | 1.1 | -3% | -1.9 | 0.62 | 0.1
COc1ccc(Cl)cc1N(CC(=O)NC1CC2CCC1C2)S(=O)(=O)c1ccccc1 (centres undefined)
    i | -12 | 1.2 | . | 0.7 | 0.69 | 1.7
CCN1CCN(S(=O)(=O)c2cc3c(cc2Cl)NC(=O)CO3)CC1
    i | 2.3 | 2.0 | . | 5.2 | 0.78 | 0.5
Cc1nn(-c2ccccc2)c(Cl)c1C(=O)NC1CCCCC1
    i | -2.8 | 0.3 | -6% | 3.5 | 0.71 | 3.7
CCOC(=O)c1c(C)c(C(=O)N2CCN(c3cccc(Cl)c3)CC2)c(C)n1C
    . | . | 0.7 | -2% | -0.3 | 0.68 | 6.5
COC(=O)c1cccc(/C=N/NC(N)=S)c1O
    i | -21 | 2.8 | -5% | . | . | 42*
CCN(Cc1ccccc1)S(=O)(=O)c1ccc2c(c1)NC(=O)CS2
    i | 1.1 | -1.4 | . | 0.0 | 0.69 | -1.9
O=C(NC1CCS(=O)(=O)C1)c1ccccc1C(=O)c1ccccc1 (centres undefined)
    . | . | 2.9 | 21% | 1.2 | 0.73 | .
COc1ccc(CCNC(=O)c2c(O)c3ccccc3[nH]c2=O)cc1OC
    i | -16 | 3.4 | -3% | -0.8 | 0.65 | -4.0
O=C(NCCCn1ccnc1)/C(=C/c1cccnc1)NC(=O)c1ccco1
    i | -0.2 | -3.4 | -11% | 5.3 | 0.68 | -1.5
Cn1c(N2CCN(c3ccccn3)CC2)nc2c1c(=O)n(Cc1ccc(Cl)cc1)c(=O)n2C
    . | . | 0.7 | 16%&-1% | -0.8 | 0.82 | 3.4
Cc1ccc(C(=O)Nc2nncs2)cc1S(=O)(=O)N1CCOCC1
    . | . | 0.8 | -2% | 5.1 | 0.71 | 5.5
Cc1ccc(N2CC(C(=O)Nc3nc4ccc(S(C)(=O)=O)cc4s3)CC2=O)cc1C (centres undefined)
    i | 0.1 | 0.3 | . | 1.6 | 0.67 | -1.2
CCOc1cc(C(=S)N2CCOCC2)cc(Br)c1OS(=O)(=O)c1ccccc1
    i | 2.5 | -0.3 | -5% | 8.0 | 0.67 | -3.0
CCOCc1nnc(NC(=O)CSc2ccc(C)cc2)s1
    . | . | -2.2 | 1% | 3.9 | 0.67 | 2.3
O=C(CCc1nnc(CCc2ccccc2)o1)N1CCCCC1CCn1cccn1 (centres undefined)
    . | . | 0.7 | -3% | 0.8 | 0.69 | -1.8
Cc1c(CC(=O)O)c(=O)oc2cc(OCc3ccc(F)cc3F)ccc12
    i | -5.1 | 2.4 | 2% | -446 | 0.68 | -2.3
O=C(NC(=S)N1CCN(c2ccccn2)CC1)c1ccccc1
    . | . | 0.8 | 4% | 4.7 | 0.68 | 6.7
CC(Nc1nc(-c2cccnc2)nc2ccccc12)c1ccccc1 (centres undefined)
    i | 2.8 | 1.1 | 0% | . | . | .
O=C1CCCN1CCC1CCN(C(=O)Nc2ccccc2)CC1
    i | 14 | 0.8 | 2% | 0.8 | 0.71 | 3.2
CCCCCN(C(=O)CCC(=O)OCC(=O)N(C)c1ccccc1)c1c(N)n(CCCC)c(=O)[nH]c1=O
    i | -2.9 | -4.9 | 5% | -1.0 | 0.64 | 2.6
CC1=C(C(=O)O)CC(S(=O)(=O)O)C1(C)C (centres undefined)
    i | 0.1 | 2.6 | 14% | . | . | .
O=C(NNC(=O)C1CC1)Nc1ccc(Cl)cc1
    i | -0.7 | 0.4 | . | 0.8 | 0.68 | .
CNc1nc(N)c([N+](=O)[O-])c(Nc2ccccc2OC)n1
    i | 0.5 | -3.4 | 4% | 6.4 | 0.67 | 1.7
c1ccc(N2CCN(c3ccccc3)C2c2cccs2)cc1
    . | . | 5.7 | 19% | 1.6 | 0.64 | 0.1
FC(F)Sc1nnc(-c2cccs2)n1-c1ccccc1
    . | . | -2.7 | 0% | -2.2 | 0.76 | -1.8
CC1(C)CC(=O)C(C=NC2CC(C)(C)NC(C)(C)C2)=C(O)C1
    . | . | 2.7 | 0% | 3.8 | 0.67 | -0.5
Cc1ccc(S(=O)(=O)Nc2ccc(C(=O)NCCCn3ccnc3)cc2)cc1[N+](=O)[O-]
    i | -3.3 | 3.1 | 4% | 1.1 | 0.73 | .
COc1cccc(NC(=S)N2CCN(c3ccccn3)CC2)c1
    . | . | -3.0 | 4% | 0.9 | 0.58 | 3.1
COCCNc1ncnc2c1ncn2[C@H]1CN(Cc2ccc(F)cc2)C[C@@H](CO)O1
    i | 0.7 | -1.5 | . | . | . | .

Next results:
Order of results – FGF22 binding | MLL AF4-AF9 inh | HNF4A DNA FP | Vif TR-FRET | UCH37 DUB inh | Ecoli growth | RanGTP-Impb inh
COC(=O)c1ccccc1NC(=O)[C@@H]1CCC(=O)N1C1OC(=O)c2c1ccc(OC)c2OC (some centres undefined)
    i | 2.3 | 0.8 | . | 3.3 | 0.67 | 2.4
C[C@H](CO)N1C[C@H](C)[C@H](CN(C)S(=O)(=O)c2ccc(Oc3ccccc3)nc2)OCc2cnnn2CCCC1=O
    i | 0.3&-1.0 | 1.4 | . | . | . | .
O=C(/C=C/c1ccc2c(c1)OCO2)N1CCN(c2ccccc2F)CC1
    i | -3.0 | -3.8 | . | 2.8 | 0.71 | -4.5
CC(C)C1Oc2ccccc2N(CC(=O)NCCCN2C(C)CCCC2C)C1=O (centres undefined)
    i | 3.6 | 3.1 | ? | -2.9 | 0.75 | -2.8
CCN(c1ccccc1)S(=O)(=O)c1cc(NC(=O)CSc2n[nH]c(=O)[nH]c2=O)ccc1Cl
    i | -0.6 | 0.5 | 3% | 3.0 | 0.67 | -0.5
FC(F)(F)c1cc(CCN2C(=S)NC[C@@H]2c2ccccc2)cc(C(F)(F)F)c1
    i | -0.6 | 0.4 | 1% | 1.3 | . | 1.8
Cc1ccc(OCC(=O)NNC(=O)CCc2ccccc2)c(Br)c1
    i | -3.3 | 2.1 | 8% | 1.8 | 0.68 | 1.9
CSc1cccc(NC(=S)N2CCC(c3ccccc3)C2)c1 (centres undefined)
    i | 0.0 | 3.4 | -2% | 2.8 | 0.69 | -1.2
CCOC(=O)C1=C(C)N=c2s/c(=C3\C(=O)Nc4ccccc43)c(=O)n2C1c1ccc2c(c1)OCO2 (centres undefined)
    . | . | 2.0 | -4%&29% | . | . | -2.0
CC(C)(C)CC(=O)Nc1cccc2c1CCCC2
    . | . | 5.7 | 11% | 3.3 | 0.77 | -2.7
Nc1nc(SCC(=O)c2cccc([N+](=O)[O-])c2)n[nH]1
    i | -16 | 5.1 | 16% | 1.5 | 0.7 | 0.5
O=C(NCCN1CCCCCC1)C1CCC(CNS(=O)(=O)c2cccc3cccnc23)CC1 (centres undefined)
    i | 1.5 | 4.6 | 8% | 5.2 | 0.77 | 2.9
CCC1CCCCN1CCCNC(=O)c1cc2c(=O)[nH]c3ccccc3c2n1C (centres undefined)
    i | -0.1 | -1.7 | 33% | -1.5 | 0.67 | 1.7
CCSc1nc2c(c(=O)[nH]1)C(c1cccnc1)C(C(=O)OC)=C(C)N2 (centres undefined)
    . | . | 1.0 | 0% | 2.9 | 0.75 | -1.3

The list is partial (hit frequency here may not be typical).
